HSV replic up = HSV replication enhancement; HSV replication augmentation in cells, fold increase; maximum fold increase; 220,000 compounds, 0.005% hits;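 active = peak rise of 1.5-fold or more in the series; tested in PC3 cells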;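 note: first round at 10 µM; read as green reporter fluorescence; hits show the peak of a series up to 25 µM; 1 = signal of infected wells without compound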
RGS16-Gao HTS = modulates binding between human RGS16 and Galphao. O15492+P09471. bead-based flow cytometry RGS16-Galphao binding, fluorescence; actives lie on both sides. binding response (% of control), % at 10 µM. 220,000 compounds, 0.38% hits. AID 1441;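 active = below 25% or above 175%, edge rows of some plates excepted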;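 note: Galphao activated by GDP with aluminum fluoride before binding; 100% = wells without compound and 0% = beads without RGS; some results beyond the cut were filed as inactive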
Target sequence (O15492 whole entry, looked up): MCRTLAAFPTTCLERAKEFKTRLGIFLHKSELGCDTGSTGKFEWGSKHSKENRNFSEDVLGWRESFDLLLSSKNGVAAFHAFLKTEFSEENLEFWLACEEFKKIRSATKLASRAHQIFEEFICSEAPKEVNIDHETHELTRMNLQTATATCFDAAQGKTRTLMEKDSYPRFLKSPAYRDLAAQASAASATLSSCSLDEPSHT
Target sequence (P09471 whole entry, looked up): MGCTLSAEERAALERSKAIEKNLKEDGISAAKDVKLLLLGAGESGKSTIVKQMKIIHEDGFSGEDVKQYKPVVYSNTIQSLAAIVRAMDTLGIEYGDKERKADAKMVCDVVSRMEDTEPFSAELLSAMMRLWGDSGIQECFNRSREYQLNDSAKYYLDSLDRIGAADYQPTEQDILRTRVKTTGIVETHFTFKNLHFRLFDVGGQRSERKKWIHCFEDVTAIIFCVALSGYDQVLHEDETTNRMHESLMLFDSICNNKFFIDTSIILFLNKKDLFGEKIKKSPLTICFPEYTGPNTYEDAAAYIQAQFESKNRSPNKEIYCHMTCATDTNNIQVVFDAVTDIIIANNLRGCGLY
PKD1 inh = PKD1 (human) kinase inhibition. inhibition, %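 (about 10 µM by stock and volumes)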. 200,000 compounds, 0.056% hits. PKD1 kinase fluorescence polarization assay. AID 797;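 active = inhibition of 50% or more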;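 note: controls were vehicle for no effect and a reference inhibitor for full effect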
Insulin prom inh = TRM-6 insulin promoter activity inhibition; TRM-6 cells (human fetal islet line), insulin promoter-eGFP reporter, imaging; reporter expression induced with tamoxifen; inhibition, % at 2 µM; 130,000 compounds, 0.9% hits; AID 1273;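 active = inhibition above the mean plus 3 SD, with well images judged a real hit on visual review, cut at about 60% in these data, passing the limit was not always enough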
GALR2 ag = activates the human galanin receptor 2; GALR2-expressing cells, agonist activation read-out; activation, %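 (tested at 5 µM)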; 140,000 compounds, 0.48% hits;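 active = above mean plus 3 SD of all compounds, about 5% in these data, not always enough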;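 note: 0% = vehicle buffer wells and 100% = reference agonist at full effect; tested in CHO reporter cells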
Target sequence (O43603 whole entry, looked up): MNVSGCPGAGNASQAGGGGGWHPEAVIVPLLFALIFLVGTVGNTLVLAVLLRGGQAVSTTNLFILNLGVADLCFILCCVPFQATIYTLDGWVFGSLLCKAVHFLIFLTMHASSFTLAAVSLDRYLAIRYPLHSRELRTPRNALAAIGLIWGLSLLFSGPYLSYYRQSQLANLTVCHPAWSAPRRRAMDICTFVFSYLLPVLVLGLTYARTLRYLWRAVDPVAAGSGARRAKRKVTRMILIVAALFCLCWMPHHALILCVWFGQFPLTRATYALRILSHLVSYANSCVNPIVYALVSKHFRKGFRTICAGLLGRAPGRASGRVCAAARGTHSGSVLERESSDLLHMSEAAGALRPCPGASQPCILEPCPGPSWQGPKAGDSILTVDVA
Insulin prom inh cell count = recorded beside Insulin prom inh, whose call it bears; normalized cell count, %; measured here: cell count, toxicity; reference of the scale not given here;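 cells exposed to compound for 48 h; stained nuclei by imaging scaled within each plate; lower means fewer cells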
HSV replic up primary fold = further read-out of HSV replic up, marked with its call; fold increase; compound at 10 µM; measured here: primary screen fold increase 10 uM; tested in PC3 cells;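 GFP signal in the first replicate; 1 = infected wells without compound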
The depositor's hits bear a star; i = inactive; . = no result given.

SMILES | HSV replic up | HSV replic up primary fold | RGS16-Gao HTS | PKD1 inh | Insulin prom inh | Insulin prom inh cell count | GALR2 ag
O=C(NCc1ccccc1)c1cccc(OCC(=O)N2CCN(C(=O)c3ccco3)CC2)c1 | i | 0.85 | 99 | -5 | 3 | 120 | -1.8
CC(C)(C)c1n[nH]c(=S)n(N)c1=O | i | 1.1 | 94 | 36 | -31 | 188 | -3.4
N#CCOC(=O)/C=C/c1ccc2c(c1)OCO2 | i | 0.8 | 102 | 2 | . | . | .
O=C1CC(/C=C/c2cccnc2)=Nc2ccccc2N1 | i | 1.1 | 93 | 5 | . | . | .
Cc1cc(C)c(NC(=O)/C=C\C(=O)O)c(Cl)c1 | i | 1 | 102 | -6 | . | . | -0.1
Cc1cccc2cc(CN(C(=O)c3cccc([N+](=O)[O-])c3)C(C)C)c(=O)[nH]c12 | i | 0.99 | 94 | . | . | . | .
C=CCn1c(CNC(=O)c2ccco2)nnc1SCC(=O)N1c2ccccc2Sc2ccccc21 | i | 0.96 | 102 | -10 | -103 | 100 | -1.6
CC(NC(=O)Cn1nnc(-c2ccncc2)n1)c1ccccc1 (stereo unspecified) | i | 0.81 | 106 | -9 | -25 | 76 | 0.5
CCC(CC)c1nc2cc(OC)c(OC)cc2c(=O)o1 | i | 1.2 | 54 | -6 | . | . | -1.3
Oc1c(Br)cc(/C=N/NC(=S)NCC2CCCO2)cc1Br (stereo unspecified) | i | 1 | 102 | . | . | . | .
COc1ccc(C(CNC(=O)c2ccccc2C)N2CCCC2)cc1 (stereo unspecified) | i | 0.88 | 103 | -10 | -4 | 89 | -1.6
N#CCCn1cc(C(=O)O)c(-c2cccs2)n1 | i | 1.1 | 116 | -4 | -21 | 108 | .
COc1ccc(-c2c[n+]3c(n2-c2ccccc2)SCC3)cc1 | i | 0.9 | 104 | . | . | . | .
CCOC(=O)c1c(-c2ccc(C)o2)csc1NC(=S)NC(=O)N(C)C | i | 0.9 | 98 | -11 | . | . | -0.7
Cc1ccc(N=C(N)N=C(N)N)cc1 | i | 1.1 | 101 | . | . | . | .
COC(=O)/C=C1\S/C(=N/NC(=O)c2ccccc2)NC1=O | i | 0.86 | 108 | 0 | -9 | 101 | -0.6
O=C(O)c1ccc(/C=N/NC(=O)c2cc(-c3cccs3)nc3ccccc23)cc1 | i | 1.1 | 105 | -13 | 4 | 167 | -1.1
CCCCNC(=O)C1CCC(CNc2nc(=S)[nH]c3ccccc23)CC1 (stereo unspecified) | i | 0.8 | 102 | 5 | 21 | 143 | .
CCCOc1ccc(N2C(=O)CC(NCc3ccncc3)C2=O)cc1 (stereo unspecified) | i | 1 | 98 | -3 | 50 | 111 | -2.1
COc1ccc(/C(N)=N/OC(=O)c2ccco2)cc1OC | i | 0.93 | 101 | 8 | -31 | 113 | .
CCNc1nc(CN2CCOCC2)nc2sc3c(c12)CCC3 | i | 0.98 | 103 | 0 | -21 | 134 | 0.4
CCOC(=O)Cn1c(=O)oc2cc(S(=O)(=O)NCc3cccs3)ccc21 | i | 0.99 | 106 | -11 | . | . | -2.9
N#Cc1cccc(-n2nnnc2-c2ccc3c(c2)OCO3)c1 | i | 0.83 | 98 | 6 | -26 | 135 | -1.2
CCn1c(=NC(=O)c2ccc(S(=O)(=O)N3CCOCC3)cc2)sc2cccc(OC)c21 | i | 0.88 | 93 | -5 | -36 | 105 | -5.0
c1ccc(-c2noc(CN3CCN(c4cnccn4)CC3)n2)cc1 | i | 0.95 | 105 | -8 | . | . | .
COc1ccc2c(CC(=O)NCc3cccs3)coc2c1 | i | 1 | 98 | -3 | -29 | 108 | .
COC(=O)c1ccc(CSc2nncn2N)cc1 | i | 0.93 | 96 | -1 | . | . | .
Cc1cc(NC(=O)CSc2nncn2-c2ccccc2)no1 | i | 0.94 | 90 | 1 | 33 | 143 | .
O=C1N=C(c2ccccc2)S/C1=C\c1cccs1 | i | 0.88 | -419 | 6 | 6 | 33 | -3.7
CCc1ccc(CN(C)CCc2ccccn2)cc1 | i | 0.96 | 145 | -9 | . | . | -0.2
C/C(CCc1ccc2c(c1)OCO2)=N\N=C(/N)SC1CC(=O)N(c2ccc(Cl)cc2)C1=O (stereo unspecified) | i | 0.96 | 102 | 0 | . | . | -4.5
CC(Oc1ccccc1)C(=O)N=Nc1c(O)[nH]c2ccc([N+](=O)[O-])cc12 (stereo unspecified) | i | 0.93 | 101 | -8 | . | . | .
O=C(CNC(=O)c1ccc(Br)cc1)N/N=C/c1ccc[nH]1 | i | 0.83 | 104 | -15 | 36 | 130 | -0.8
COc1ccc(C(=O)NCCc2cn3ccccc3n2)cc1 | i | 1.2 | 105 | . | . | . | .
NC(=O)CSc1nc2ccccc2n1Cc1ccccc1 | i | 1 | 106 | 1 | -6 | 94 | 0.0
Cc1cccc(-c2nsc(SCC(=O)c3ccc(Cl)cc3)n2)c1 | i | 1.2 | 100 | -4 | . | . | -0.6
Brc1ccc2[nH]ncc2c1 | i | 0.91 | 99 | -7 | -88 | 92 | -1.4
Cc1ccc(O)c(C2=Nc3ccccc3N=C(c3ccc([N+](=O)[O-])cc3)C2)c1 | i | 1.2 | 115 | 0 | . | . | -0.9
CCOc1ccc(C(CCc2ccccc2)NC(=O)c2ccccc2OC)cc1OCC (stereo unspecified) | i | 1 | 108 | 0 | 0 | 47 | -1.4
Cc1ccc(C(=O)N/C(=C/c2ccco2)C(=O)NCCc2c[nH]c3ccccc23)cc1 | i | 1.1 | 105 | 8 | . | . | 0.1

Arranged by length of the SMILES (descending): part of the list above.
SMILES | HSV replic up | HSV replic up primary fold | RGS16-Gao HTS | PKD1 inh | Insulin prom inh | Insulin prom inh cell count | GALR2 ag
C/C(CCc1ccc2c(c1)OCO2)=N\N=C(/N)SC1CC(=O)N(c2ccc(Cl)cc2)C1=O (stereo unspecified) | i | 0.96 | 102 | 0 | . | . | -4.5
Cc1ccc(O)c(C2=Nc3ccccc3N=C(c3ccc([N+](=O)[O-])cc3)C2)c1 | i | 1.2 | 115 | 0 | . | . | -0.9
CCOc1ccc(C(CCc2ccccc2)NC(=O)c2ccccc2OC)cc1OCC (stereo unspecified) | i | 1 | 108 | 0 | 0 | 47 | -1.4
Cc1cccc(-c2nsc(SCC(=O)c3ccc(Cl)cc3)n2)c1 | i | 1.2 | 100 | -4 | . | . | -0.6
c1ccc(-c2noc(CN3CCN(c4cnccn4)CC3)n2)cc1 | i | 0.95 | 105 | -8 | . | . | .
N#Cc1cccc(-n2nnnc2-c2ccc3c(c2)OCO3)c1 | i | 0.83 | 98 | 6 | -26 | 135 | -1.2
Cc1cc(NC(=O)CSc2nncn2-c2ccccc2)no1 | i | 0.94 | 90 | 1 | 33 | 143 | .
COc1ccc(C(=O)NCCc2cn3ccccc3n2)cc1 | i | 1.2 | 105 | . | . | . | .
COc1ccc2c(CC(=O)NCc3cccs3)coc2c1 | i | 1 | 98 | -3 | -29 | 108 | .
O=C1N=C(c2ccccc2)S/C1=C\c1cccs1 | i | 0.88 | -419 | 6 | 6 | 33 | -3.7
CCc1ccc(CN(C)CCc2ccccn2)cc1 | i | 0.96 | 145 | -9 | . | . | -0.2
Brc1ccc2[nH]ncc2c1 | i | 0.91 | 99 | -7 | -88 | 92 | -1.4

Next part
SMILES | HSV replic up | HSV replic up primary fold | RGS16-Gao HTS | PKD1 inh | Insulin prom inh | Insulin prom inh cell count | GALR2 ag
COc1ccc2c(c1)O[C@H](c1ccc3c(c1)OCO3)[C@@H](OC(=O)Nc1cc(OC)c(OC)c(OC)c1)C2=O | . | . | 43 | 7 | 5 | 40 | -2.0
Cc1cnc(C)c(N(C)NC(=S)Nc2ccccc2)n1 | i | 0.99 | 104 | -14 | -485 | 104 | -1.4
O=C(/C=C/c1cccc(Br)c1)NCc1ccncc1 | i | 1 | 101 | -3 | . | . | .
O=c1c2ccccc2[nH]c(=S)n1C1CCCCC1 | i | 0.78 | 99 | 9 | 56 | 70 | -1.1
C=CCN(c1ccccc1)S(=O)(=O)c1ccc(Cl)c(C(=O)OCC(=O)NCCCN2CCCC2=O)c1 | i | 0.9 | 95 | 1 | . | . | .
CCN1CCN(Cc2ccc(NC(=O)c3cc(NC(=O)c4nccnc4N)cc(OC)c3)cc2C(F)(F)F)CC1 | i | 0.66 | 99 | . | . | . | .
CCOC(=O)N1CCN(C(=O)CCc2ccc(S(=O)(=O)NCCc3ccccc3)cc2)CC1 | i | 1 | 71 | 6 | -38 | 136 | 0.4
C=CCSc1nc(-c2ccccc2)c2cc(Cl)ccc2n1 | i | 0.98 | 101 | 2 | 11 | 127 | -1.3
COc1cccc(Cn2cnc3c(NS(=O)(=O)c4cccc(Cl)c4Cl)c(C)c(C)cc32)c1 | i | 0.9 | 107 | -3 | 12 | 41 | -0.2
CC(=O)c1cn(CC(=O)NCC2CCCO2)c2ccccc12 (stereo unspecified) | i | 0.91 | 102 | 1 | -394 | 82 | -2.5
COc1cc(/C=N/NC(=S)N/N=C/c2cc(OC)c(OC)c(OC)c2)cc(OC)c1OC | i | 0.92 | 109 | -9 | 15 | 68 | -1.2
CCOc1ccc(C(=O)N2CCN(c3cccc(Cl)c3)CC2)cc1 | i | 0.88 | 107 | 1 | 53 | 128 | .
O=C(CN1CCN(Cc2ccccc2)C1=O)NCc1cccs1 | i | 0.91 | 96 | -15 | . | . | -2.3
CCC(=O)NCCc1nc2ccccc2n1CC | i | 0.97 | 104 | -20 | . | . | -4.4
CCCC(=O)Nc1cccc(NC(=S)NC(=O)C(C)Oc2ccc(Cl)cc2Cl)c1 (stereo unspecified) | i | 0.99 | 108 | -8 | . | . | -1.6
COc1ccc(CCNC(=O)CSc2n[nH]c(C)c2[N+](=O)[O-])cc1OC | i | 0.92 | 99 | 1 | 50 | 132 | .
Cc1cccc(NC(=S)NCCN(C2CCCCC2)C2CCCC2)c1 | i | 0.77 | 105 | 3 | 7 | 77 | .
CC(C(=O)Nc1ccccc1-c1ccccc1)N1CCOCC1 (stereo unspecified) | i | 1.1 | 66 | -15 | -37 | 148 | 0.5
NS(=O)(=O)c1ccc(NC(=O)COc2ncnc3sccc23)cc1 | i | 0.95 | 102 | . | . | . | .
Cn1c(=O)c2c(nc(NCC(O)CO)n2CCc2ccccc2)n(C)c1=O (stereo unspecified) | i | 0.91 | 112 | 3 | . | . | -1.8
CSc1nnc(CSc2cc(C)nc(N(C)C)n2)o1 | i | 0.89 | 133 | -1 | -44 | 35 | -0.8
COc1ccc(CCNC(=O)C2(C)CCC(=O)N2CCC(C)C)cc1OC (stereo unspecified) | i | 1 | 104 | -15 | . | . | -1.0
CCc1c(O)nc(SCC(=O)Nc2ccc3c(c2)CCC3)[nH]c1=O | i | 0.97 | 103 | -3 | 6 | 164 | -1.4
COc1ccc(C(=O)Nc2nc3cc(OC)c(OC)cc3c(=O)[nH]2)cc1 | i | 0.83 | 109 | -18 | 53 | 144 | -1.1
O=C(OCc1ccc(Cl)cc1)c1cnccn1 | i | 1.1 | 98 | 0 | -4 | 99 | -0.2
CC(=O)c1cccc(N(C(=O)c2cnccn2)C(C(=O)NCc2ccccc2)c2ccco2)c1 (stereo unspecified) | i | 0.95 | 107 | 1 | -28 | 129 | -1.3
CCOc1ccccc1N(C(=O)CNS(=O)(=O)c1ccccc1)C(CC)C(=O)NCc1ccco1 (stereo unspecified) | i | 0.87 | 99 | 6 | -19 | 114 | -0.5
COc1ccc(CCNC(=O)/C=C\c2ccccc2)cc1OC | i | 1.1 | 100 | -5 | 59 | 89 | -1.2
COC(=O)c1cc(-c2ccc(OC)cc2)on1 | i | 0.97 | 104 | -6 | . | . | .
CC(=O)N1C(=O)/C(=C2\SC(=S)N(c3c(C)n(C)n(-c4ccccc4)c3=O)C2=O)c2ccccc21 | i | 0.94 | 106 | -1 | . | . | -1.0
CCCCN(N=Nc1nonc1OC)c1nonc1OC | i | 0.8 | 62 | -1 | -19 | 101 | -1.3
Cc1cc(NCC(c2ccccc2)c2ccccc2)n2ncnc2n1 | i | 1 | 100 | -5 | . | . | .
O=C(c1cccnc1)N1CCCc2ccccc21 | i | 1 | 103 | 5 | 0 | 52 | -0.7
CCOc1ccc(N(CCC#N)S(=O)(=O)c2ccc(OC)cc2)cc1 | i | 1 | 100 | -7 | -31 | 107 | -0.9

An unsorted share of the library. Share with any hit: about 1.2%.
